# High-throughput results from PubChem BioAssay.
# VDR inhibitor – Inhibitors of the vitamin D receptor (VDR): qHTS; Potency, µM, without a hit: max response, negative = inhibition, hits mostly inhibitors; 0.93% of 400,000 active; VDR-SRC2-3 peptide fluorescence polarization, 2 h; active = well fitted inhibition curve with a large enough effect; inconclusive = small, poorly fitted or top-dose-only effect, or another doubt; inactive = no such curve, though single readings can be large or run the other way; also: series mostly up to about 120 µM
# Target sequence (P11473 whole entry, looked up): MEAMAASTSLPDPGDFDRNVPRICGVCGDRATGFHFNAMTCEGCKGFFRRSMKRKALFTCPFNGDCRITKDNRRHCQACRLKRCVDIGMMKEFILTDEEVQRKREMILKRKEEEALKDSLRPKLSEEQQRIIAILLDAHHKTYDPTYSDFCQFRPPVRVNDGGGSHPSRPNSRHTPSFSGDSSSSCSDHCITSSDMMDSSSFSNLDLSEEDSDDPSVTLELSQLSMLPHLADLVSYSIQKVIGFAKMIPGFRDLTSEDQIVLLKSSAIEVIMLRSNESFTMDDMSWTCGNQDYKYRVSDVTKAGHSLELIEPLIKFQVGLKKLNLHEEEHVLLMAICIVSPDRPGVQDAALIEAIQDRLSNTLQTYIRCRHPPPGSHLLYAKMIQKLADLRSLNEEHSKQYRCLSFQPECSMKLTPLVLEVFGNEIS
#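 Measured by FP: displacement of SRC2-3 coactivator peptide from VDR by library compounds, following a two-hour ambient incubation.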
# Active calls of the source: *; ? = inconclusive; & = joins results of further samples. % is scaled to controls: 0 for no effect and ±100 for the full control effect; potency is read from the fitted curve at half-maximal effect. Only part of the results is shown, so the mix of outcomes need not match the whole.
# Preview:
Molecule	VDR inhibitor
Cc1ccc(C(=O)CSc2nnc3c4ccccc4nc(C(C)(C)C)n23)cc1	-5%
O=C(CNCC1CCCCC1)Nc1cccc(S(=O)(=O)N2CCOCC2)c1	-20%
CCN(CC)CCCNC(=O)c1ccc2c(c1)NC(=O)C(CS(=O)(=O)Cc1ccc(F)cc1Cl)N2 (centres undefined)	7%
COc1ccc(NC(=O)CN2CCC(NC(=O)c3ccc(OC)cc3)CC2)cc1	-7%
CCC(=O)/C=C1\Sc2ccc(OC)cc2N1CC	?
CCNc1ncc2nc(-c3cccs3)c(=O)n(CCC#N)c2n1	-6%
COc1ccc(C(c2nnnn2C(C)(C)C)N2CCN(c3nc4ccccc4s3)CC2)cc1OC (centres undefined)	9%

# Main list, previewed entries included:
Molecule	VDR inhibitor
Cc1ccc(C(=O)CSc2nnc3c4ccccc4nc(C(C)(C)C)n23)cc1	-5%
O=C(CNCC1CCCCC1)Nc1cccc(S(=O)(=O)N2CCOCC2)c1	-20%
CCN(CC)CCCNC(=O)c1ccc2c(c1)NC(=O)C(CS(=O)(=O)Cc1ccc(F)cc1Cl)N2 (centres undefined)	7%
COc1ccc(NC(=O)CN2CCC(NC(=O)c3ccc(OC)cc3)CC2)cc1	-7%
CCC(=O)/C=C1\Sc2ccc(OC)cc2N1CC	?
CCNc1ncc2nc(-c3cccs3)c(=O)n(CCC#N)c2n1	-6%
COc1ccc(C(c2nnnn2C(C)(C)C)N2CCN(c3nc4ccccc4s3)CC2)cc1OC (centres undefined)	9%
CC(C)CCNC(=O)CSc1nc2ccccc2nc1Cc1ccccc1	16%
Cc1cccc(-n2c(C)cc(C=C(C#N)C#N)c2C)c1	-3%
COc1ccc(S(=O)(=O)N(C)C[C@H]2Oc3c(NC(=O)Cc4ccccc4)cccc3C(=O)N([C@H](C)CO)C[C@@H]2C)cc1	-6%
COc1ccc(N(CC(=O)NC2CCCCC2)C(=O)CNC(=O)c2ccco2)cc1OC	-7%
Cc1cc(C(=O)NNC(=S)Nc2ccccc2C)cs1	-18%
OCCCn1c(CCCNc2nc(-c3cccc(Br)c3)cs2)nc2cc(Cl)c(N3CCCCC3)cc21	-8%
O=C1N(CCCN2C(=O)C3(OCCO3)c3ccccc32)c2ccccc2C12OCCO2	-8%
Cc1cc2nc(CCN(C(=S)NCC3CCCO3)C3CCCC3)[nH]c2cc1C (centres undefined)	-3%
Cc1cccc(N2CCN(C(=O)c3cccc(NC4=NC5CS(=O)(=O)CC5S4)c3)CC2)c1C (centres undefined)	-25%
Cc1ccccc1NC(=O)Cc1nc(COC(=O)c2ccccn2)cs1	-11%
O=[N+]([O-])c1ccc(/C=N/Nc2ncc(-c3ccccc3)cn2)cc1	-9%
O=C(N/N=C/c1cc(Br)cs1)C(O)c1ccccc1 (centres undefined)	-1%
Cc1ccc(CNC(=O)c2cc3c(=O)n4ccccc4nc3n(CC3CCCO3)c2=N)cc1 (centres undefined)	11%

# New compounds follow.
Molecule	VDR inhibitor
CCSc1nnc(NC(=O)C2C3CCC(C3)C2C(=O)O)s1 (centres undefined)	-11%
COc1ccc(Nc2ncnc3ccc(Br)cc23)cc1OC	1%
CCCNC(=O)Cn1nc(-c2ccc(F)cc2)c2cnc3ccc(F)cc3c21	-5%
CCOc1ccc(Cl)cc1CNCCCSc1nc(C)cc(C)n1	-11%
COc1ccc(-n2c(=O)c3c4c(sc3n(CC(N)=O)c2=O)CCCCC4)cc1	-5%
O=S(=O)(Nc1ccc(O)c2ccccc12)c1cccs1	?
CSCC[C@H](NC(=O)[C@@H]1CCCN1C(=O)[C@H](CCCN=C(N)N)NC(=O)[C@H](CC(C)C)NC(=O)[C@@H]1CCCN1C(=O)[C@@H](NC(=O)[C@@H](N)CCC(N)=O)C(C)C)C(=O)N[C@H](C(=O)N[C@@H](Cc1ccc(O)cc1)C(=O)N[C@@H](CCCCN)C(=O)O)[C@@H](C)O	-1%
COC(=O)C(C)N(c1ccc(C)cc1)S(=O)(=O)c1c(C)[nH]c(=O)[nH]c1=O (centres undefined)	9%
O=C(Cn1c(=O)n(Cc2ccccc2)c(=O)c2sc3ccccc3c21)Nc1ccccc1	-4%
COc1ccccc1NC(=O)C1=C(C)Nc2nc(SCc3ccccc3Cl)nn2C1c1cccnc1 (centres undefined)	-13%
COc1ccc2c(c1)CCCC(Br)C2=O (centres undefined)	?
CCOc1cc(C(=O)N2CCn3c4c(c5cc(C)ccc53)CCCC42)cc(OCC)c1OCC (centres undefined)	10%
Cn1cc(-c2ccc(Cl)cc2)cc(C#N)c1=O	1%
Cc1ccccc1NC(=S)N(C)Cc1cn(C)c2ccccc12	8%
CC(=O)C1=C(C)N(Cc2ccccc2)C(=O)N[C@H]1c1ccco1	-7%
O=C(CSc1nn(-c2ccc(F)cc2)c(=S)s1)NCC1CCCO1 (centres undefined)	8%
COc1c(Br)cc2c(C)c(C(=O)N3CCOCC3)oc2c1Br	-3%
CCC(C)N1C(=O)c2ccccc2C1C(=O)NC1CCCCCC1 (centres undefined)	-9%
Cc1cnc(C(=O)Nc2ccccc2-c2nnn(CC(=O)NC3CCCC3)n2)cn1	-23%
C=CCOc1ccc(C(=O)Nc2ccc3c(c2)n(C)c(=O)n3C)cc1	-27%

# Other compounds:
Molecule	VDR inhibitor
COC(=O)c1cc(NC(=O)c2cc3c(-c4ccccc4F)nn(C)c3s2)cc(C(=O)OC)c1	-16%
O=C(Nc1cccc(F)c1)Nc1ccc(Cl)cn1	7%
O=S(=O)(Nc1ccc(Cl)cc1)c1cccc2cccnc12	8%
Nc1cc([N+](=O)[O-])ccc1O	-5%
CC(NC(=O)CN1CCc2ccccc21)c1ccccc1 (centres undefined)	-8%
COc1ccc([C@H]2/C=C\CN(C(=O)C3CCCC3)[C@@H](C)C(=O)N2Cc2ccc(F)cc2)cc1	-8%
O=C(NCCc1cscn1)C1CCC(=O)N(Cc2ccc(Cl)cc2)C1 (centres undefined)	15%
O=C(NN=C1CCCC1)c1ccc([N+](=O)[O-])cc1	-13%
Cc1ccc2[nH]c3c(=O)n(Cc4ccco4)cnc3c2c1	-2%
CN(C)S(=O)(=O)c1ccc2oc(SCC(N)=O)nc2c1	1%
O=C(NC1CCCC1)c1cnn(-c2ccc(F)cc2F)c1C1CCNCC1	8%
CCC(=O)Nc1ccc2c(c1)ncn2CCc1ccccc1	9%
Cc1cc(C)cc(-n2ncc3c2CCCC3NC(=O)c2cc(C)n(C)n2)c1 (centres undefined)	0%
CCN(CC)c1ccc(N=CN2CCOCC2)cc1	0%
COCCNC(=S)Nc1ccc2nsnc2c1	8%
COc1ccccc1COC(=O)Nc1c(C)nn(C)c1Cl	-3%
COc1ccc(NC(=O)c2cncc(Br)c2)cc1S(=O)(=O)N1CCCCC1	3%
CC1CC(=O)Nc2ccccc2N1S(=O)(=O)c1cccc(Cl)c1 (centres undefined)	-16%
CC1C(c2ccccc2)N(C)C(c2ccccc2)C(C)C1(O)C#Cc1ccccc1 (centres undefined)	-20%
CCN(CC)C(=O)c1[nH]cnc1C(=O)Nc1ccc(C)cc1	-28%

# The list goes on:
Molecule	VDR inhibitor
O=C(COc1ccc(Cl)cc1)NCc1nnc(SCC(=O)Nc2ccccc2F)o1	-5%
c1ccc(CNc2cncnc2)cc1	5%
C=CCSc1nnc(-c2c[nH]c3ccccc23)n1CCOC	-7%
O=C(CN1CCCN(Cc2ccc(F)cc2Cl)C1=O)NC1CCCCCCC1	17%
Cc1ccc(S(=O)(=O)c2nnn3c2nc(NC(C)c2ccccc2)c2sccc23)cc1 (centres undefined)	14%
CCCOc1cccc(C2/C(=C(/O)c3ccccc3)C(=O)C(=O)N2CCN(C)C)c1 (centres undefined)	-6%
COc1ccc(CCCN2CCC(CN3C(=S)NC[C@@H]3Cc3ccccc3)CC2)cc1OC	-16%
CCCCn1c(N)c(N(Cc2ccccc2OC)C(=O)CC2OC(=O)c3ccccc32)c(=O)[nH]c1=O (centres undefined)	?
FC(F)(F)c1cccc(NCc2cn3cccnc3n2)c1	-17%
COc1ccc(NC(=O)CSc2nnc(-c3ccccc3)n2Cc2ccco2)cc1OC	-11%
COc1ccc2c(c1)CC(C(=O)Nc1cc(Cl)ccc1C)CO2 (centres undefined)	0%
COC(=O)c1ccc(/C=C2\Oc3ccccc3NC2=O)cc1	1%
Cc1ccc(C(=O)Nc2ccccc2C(N)=O)o1	0%
COc1ccc(C(C#N)c2ccc(=O)[nH]n2)cc1 (centres undefined)	-18%
C=Cc1ccc(Cn2c(C(=O)O)c(CNCCc3ccco3)c3ccc(C)cc32)cc1	-2%
O=S(=O)(c1ccc(F)c(F)c1F)N1CCN(C(=S)NCc2ccccc2)CC1	19%
Cc1nc2cnc(N3CCNCC3)nc2n(C2CC2)c1=O	-7%
CCCCc1n[nH]c(=S)n1Cc1ccc(Cl)cc1	8%
Cc1c(-c2ccc(Br)cc2)c(=O)oc2ccc(OC(=O)N3CCOCC3)cc12	17%
CC(C)(CCC(=S)N1CCOCC1)C1CCCCC1	?

# (list continues)
Molecule	VDR inhibitor
O=C(N/N=C/c1c[nH]c2ccccc12)c1cccc(Cl)c1	13%
CCOC(=O)CSCC(=O)Nc1cc(C)ccc1C	10%
Cc1cc(C)cc(-n2c(SCC(=O)NCc3ccco3)nc3c([nH]c4ccccc43)c2=O)c1	-2%
COc1ccc(-c2c(C)nn3c4c(cnc23)C(=O)CC(c2ccccc2)C4)cc1 (centres undefined)	-20%
CCOC(=O)C1CCN(C(=O)COC(=O)C2CCN(S(=O)(=O)c3ccc4c(c3)OCCO4)CC2)CC1	3%
CN(C(=O)c1ccc(NC(=O)Cc2cccc(NC(=O)C3CCCN(S(=O)(=O)c4cccc([N+](=O)[O-])c4)C3)c2)cc1)C1CC1 (centres undefined)	-26%
CCc1nnc(NC(=O)CSc2nnc(CCc3nc4ccccc4[nH]3)n2C)s1	-6%
Nc1nc(N)c2[nH]c(=S)[nH]c2n1	-15%
CC(C)(C)OC(=O)NCCc1nnc(SCc2c(Cl)cccc2Cl)o1	3%
Cc1ccc(NC(=O)N2CCC(NC(=O)c3cccc(F)c3)CC2)cc1	-8%
CCCc1nnc(NC(=O)CSc2nnc3c4ccccc4n(CC)c3n2)s1	4%
Cc1c(C(=O)N(C)C2CCCCC2)sc2ncnc(N3CCN(c4ccccc4F)CC3)c12	-8%
Cc1cc(Nc2ccc(N3CCOCC3)cc2)c2cccc(C)c2n1	3%
CCC(CC)NC(=O)Nc1ccc(F)cc1F	4%
CCc1ccc(NCc2cc3ccc(OC)cc3n(CC(=O)Nc3cccc(Cl)c3C)c2=O)cc1	0%
COc1ccc(C)cc1NC(=O)CCC(=O)Nc1ccc2nc(N3CCN(C)CC3)cc(C)c2c1	5%
COc1ccccc1OCCCCCCN1CCN(C)CC1	3%
COc1cc2c(cc1OC)C(NC(=O)C(F)(F)F)CNC2=O (centres undefined)	0%
Cc1cc(NC(=O)CCCn2nc([N+](=O)[O-])cc2C)no1	-11%
Cc1ccc(C)c(N2CCN(C(=O)Cn3cnc4sc(C)c(S(=O)(=O)N5CCN(c6ncccn6)CC5)c4c3=O)CC2)c1	-6%

# Other results follow.
Molecule	VDR inhibitor
CCOC(=O)c1ccc(NC(=O)COc2ccc(CNC3CCCCC3)cc2OC)cc1	-7%
C[C@@H]1C(c2ccccc2)=NN(c2ccc(Br)cc2)[C@H]1C(=O)N1CCOC1=O	-13%&-15%
O=C(CCc1cccc(Cl)c1)NC1CCCN(Cc2ccccc2F)C1 (centres undefined)	0%
Cc1ccc(C2NCCS2)cc1 (centres undefined)	-10%
O=C(CN1C(=O)CCC1=O)Nc1nc2c(F)cc(F)cc2s1	-8%
c1ccc2c3c(cc(N4CCOCC4)c2c1)OC1(N2CCOCC2)CCCCC1O3 (centres undefined)	-4%
COc1ccc(-c2nc3n(n2)C(c2ccncc2)C(C(N)=O)=C(C)N3)cc1 (centres undefined)	-18%
O=C(CNC(c1ccccc1)c1ccccc1)Nc1ccccc1-c1ccccc1	?
CCOC(=O)CC1C(=O)NCCN1C(=S)Nc1ccccc1 (centres undefined)	8%
O=C(CSc1nnc(COc2ccccc2Cl)o1)NC(=O)NCc1ccco1	12%
CCOC(=O)c1ccc(N2C(=O)CC(N3CCOCC3)C2=O)cc1 (centres undefined)	-5%
COc1ccc(-c2csc(Nc3ncccc3C)n2)cc1OC	-10%
C=CCc1c(C)nc(C)nc1N/N=C/c1ccccc1	7%
CCOC(=O)N1CCN(C(=O)CCCCCn2c(=S)[nH]c3ccsc3c2=O)CC1	-4%
O=C1c2ccccc2NC2(CCCC2)N1NS(=O)(=O)c1ccccc1	27%
Cc1ccccc1Cn1ccc(NC(=O)c2cnn3c2NC(c2ccccc2)CC3C(F)(F)F)n1 (centres undefined)	-4%
Cc1ccc(NC(=O)COC(=O)c2ccc3c(=O)n4c(nc3c2)CCC4)c(Br)c1	6%
C=CCn1sc(=N)c(C#N)c1N	-12%
CC(C)(C)c1ccc(C(=O)N2CCC(NC(=O)c3ccccc3)CC2)cc1	-18%
C=CCn1c(SCC(=O)Nc2ccc(N3CCOCC3)cc2)nnc1-c1ccco1	18%

# New compounds follow.
Molecule	VDR inhibitor
CCn1nnc(NC(=O)c2cc(Cl)c(OC)c(Cl)c2)n1	3%
CCCCOC(=O)c1c(C)oc2ccc(NS(=O)(=O)c3ccc4c5c(cccc35)C(=O)N4)cc12	-10%
O=C(CN1CCN(S(=O)(=O)N2CCCCCC2)CC1)Nc1ccc(F)cc1	1%
O=C(NN=C1C2CC3CC(C2)CC1C3)c1ccncc1	-1%
CC(C)Oc1ccc(C(=O)OCC(=O)c2ccc[nH]2)cc1	2%
O=C(Cn1cc(C(=O)c2ccco2)c2ccccc21)NC1CC1	7%
O=C(CN1CCCN(Cc2ccccc2Cl)S1(=O)=O)Nc1ccc2c(c1)OCCO2	3%
